VDR inh: inhibitors of human vitamin D receptor; VDR-SRC2-3 peptide fluorescence polarization, 2 h; Potency, µM, for inactives: max response, negative = inhibition, hits mostly inhibitors; P11473; 400,000 compounds, 0.93% hits; active = well fitted inhibition curve with a large enough effect; inconclusive = small, poorly fitted or top-dose-only effect, or another doubt; inactive = no such curve, though single readings can be large or run the other way; note: series mostly up to about 120 µM
Target sequence (P11473 whole entry, looked up): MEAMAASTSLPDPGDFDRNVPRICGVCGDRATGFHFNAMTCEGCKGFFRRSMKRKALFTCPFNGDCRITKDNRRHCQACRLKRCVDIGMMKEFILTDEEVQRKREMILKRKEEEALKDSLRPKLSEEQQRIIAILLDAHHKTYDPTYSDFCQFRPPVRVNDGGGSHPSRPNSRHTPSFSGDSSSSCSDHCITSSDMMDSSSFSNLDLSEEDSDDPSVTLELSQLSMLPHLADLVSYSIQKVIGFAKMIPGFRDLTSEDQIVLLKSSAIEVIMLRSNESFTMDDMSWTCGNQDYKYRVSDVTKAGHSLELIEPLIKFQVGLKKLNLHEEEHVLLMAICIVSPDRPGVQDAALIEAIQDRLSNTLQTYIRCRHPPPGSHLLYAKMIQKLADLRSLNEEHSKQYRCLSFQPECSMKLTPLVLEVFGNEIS
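Two reagent solutions held at 4 deg C in the dark were dispensed, compounds pinned at 23 nl, and the mixture incubated 2 h at room temperature. Read-out: fluorescence polarization of VDR–SRC2-3 peptide binding.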
Numbers without * were called inactive; ? = inconclusive; & = joins results of further samples. % is set by controls: 0 for no effect and ±100 for the full control effect; potency is the fitted concentration of half-maximal effect. Only part of the results is shown (hit frequency here may not be typical).

| structure | VDR inh |
| --- | --- |
| CN/C(=C\[N+](=O)[O-])NCCSCc1ccc(CN(C)C)o1 | -13.7%&8.7%&0.7%&-5.3% |
| C/C(=N/NC(=O)C(C)n1nc(C)c([N+](=O)[O-])c1C)c1ccc(OCC(N)=O)cc1 (configuration not stated) | 8.5% |
| O=C(NCCc1ccc(Cl)cc1)C1CCN(S(=O)(=O)N2CCCCC2)CC1 | 8.3% |
| O=C(COc1ccc(Br)cc1)N1CCOCC1 | 10.2% |
| C=C(C1=CCN(S(=O)C(C)(C)C)[C@@H]1CCO)c1ccccc1 (some centres not stated) | -12.4% |
| C=CCn1c(SCC(=O)N(C)C2CCCCC2)nnc1C1CC1 | -20.5% |
| O=C(N/C(=C/c1ccccc1Cl)C(=O)N1CCOCC1)c1ccccc1 | 7.3% |
| Cc1onc(-c2c(F)cccc2Cl)c1C(=O)OCn1nnc2ccccc2c1=O | -1.7% |
| COc1ccc(S(=O)(=O)NCc2ccco2)cc1NC(=O)c1ccccc1 | -12.6% |
| CN(C)/C=C/C(=O)c1cccc([N+](=O)[O-])c1 | 12.3% |
| CCCCn1c(=O)[nH]c(=O)c2c1nc(-c1ccc(-c3ccccc3)cc1)n2C | -17.0% |
| Cc1ccccc1C(=O)Nc1ccnn1C1CCN(Cc2cnn(C)c2)CC1 | 3.8% |
| OCc1cn(-c2ccccc2)nc1-c1ccc(Br)cc1 | -16.0% |
| CCOC(=O)c1cccc(NC(=O)CSc2nnc(-c3cccnc3)n2C)c1 | -1.7% |
| CCCCCCNc1nc(Cl)nc(NC(C)(C)CO)n1 | 9.0% |
| COCCCNC(=O)CSc1nc(-c2ccc(OC)c(OC)c2)[nH]c1-c1ccc(F)cc1 | 7.6% |
| Cn1nc(C(=O)Nc2sc3c(c2C#N)CCCC3)ccc1=O | 1.5% |
| Cc1nc(C)c(C(=O)OCC(=O)NCCc2ccc(S(N)(=O)=O)cc2)s1 | -6.6% |
| CC(C)(O)CCc1c(-c2ccc(O)cc2O)oc2c3c(cc(O)c2c1=O)OC(C)(C)C=C3 | 1.7% |
| COc1ccc(C(CNC(=O)COc2ccccc2C)N2CCCC2)cc1 (configuration not stated) | 13.5% |
| CCCNC(=O)CC1Sc2ccccc2NC1=O (configuration not stated) | 13.9% |
| C=C(C)C1CC=C(C)/C(=N/NC(=O)c2ccccc2[N+](=O)[O-])C1 (configuration not stated) | -0.7% |
| CCC(C)NC(=O)C1CCCN1S(=O)(=O)c1ccc(Cl)cc1 (configuration not stated) | 6.2% |
| CSCC[C@H](NC(=O)Nc1ccc(C)cc1C)C(=O)O | 14.8% |
| COc1cccc(/C=N/Nc2ccc(S(=O)(=O)O)cc2)c1O | -22.3% |

(continued)
| structure | VDR inh |
| --- | --- |
| CCn1cc(CN2CCC(C(=O)Nc3cccc(-c4cccc(Cl)c4)c3)CC2)cn1 | 15.3% |
| COc1cccc(NC(=O)N2CCC(NC(=O)C(Cc3ccccc3F)NC(C)=O)CC2)c1 (configuration not stated) | 14.2% |
| CC1CCN(C(=O)COC(=O)c2ccc(F)c(S(=O)(=O)N3CCOCC3)c2)CC1 | -6.6% |
| COCCNC(=O)c1onc(CSc2nc3ccccc3[nH]2)c1C(=O)NCCOC | -4.7% |
| CC1CC(NC(=O)/C(C#N)=C/c2ccc[nH]2)CC(C)(C)C1 (configuration not stated) | 8.7% |
| CCc1cc2c(-c3ccccc3)cc(=O)oc2cc1OCC(C)=O | -19.9% |
| CN(CC(=O)N1CCCCCC1)S(=O)(=O)c1ccc(Br)s1 | -2.3% |
| COc1cc(NC(=O)CCNS(=O)(=O)c2ccc3c(c2)CCN3C(=O)C2CC2)cc(OC)c1 | 2.3% |
| COC(=O)c1cccc(NC(=O)CSCc2ccccc2)c1 | 1.8% |
| Cc1cc(NC(=O)C2CCCCC2)ncc1NC(=O)c1ccccn1 | 9.5% |
| Cc1cc(Cl)ccc1NC(=S)NCc1ccc(S(N)(=O)=O)cc1 | 6.2% |
| c1ccc(Cn2c(NCc3ccncc3)nc3ccccc32)cc1 | -19.4% |
| c1ccc(N/N=C(\Cc2ncc[nH]2)c2ccccc2)cc1 | -27.5% |
| CCc1nnc(NC(=O)CSc2nnc(COc3ccc(C)cc3)n2-c2ccccc2)s1 | 2.0% |
| O=C(Nc1ccc(OCC(F)(F)C(F)F)c(C(F)(F)F)c1)c1ccccc1O | -6.3% |
| CN(C(=O)COC(=O)c1cc(S(=O)(=O)N2CCOCC2)ccc1Cl)C1CCS(=O)(=O)C1 (configuration not stated) | -11.9% |
| CC(C)(C)NC(=O)C(=O)NCc1ccncc1 | 7.4% |
| CCC(C)Sc1nc2c(cnn2-c2ccc(F)cc2)c(=O)[nH]1 (configuration not stated) | -5.9% |
| COC(CN(C)C(=O)c1cn(C)c2ccc(S(=O)(=O)N(C)C3CCCCC3)cc2c1=O)OC | ? |
| CCOc1ccc(-c2cc(C(=O)N/N=C(\C)c3cccnc3)c3ccccc3n2)cc1 | 12.6% |
| CSc1ccc(/C=N/NC(=O)c2cccc(Cl)c2)cc1 | -15.0% |
| O=[N+]([O-])c1ccc(S(=O)(=O)NCCCc2ccccc2)cc1 | 4.4% |
| O=C(N[C@@H](c1ccccc1)[C@H](O)c1ccccc1)[C@@H]1CCCN1C(=O)OCc1ccccc1 | -25.8%&6.4% |
| COc1ccc2c(c1)cc1c(=O)n(CC(=O)NCc3ccco3)nc(C)n12 | 3.1% |
| Cc1cc(C)n(-c2nc3ccccc3c(=O)n2OCC(=O)N(C)C)n1 | 11.6% |

(more compounds)
| structure | VDR inh |
| --- | --- |
| Cc1cc(C(=O)CSc2nc3ccccc3o2)c(C)n1CC1CCCO1 (configuration not stated) | 9.2% |
| CC1CCC(NC(=O)COC(=O)c2n[nH]c(=O)c3ccccc23)CC1 (configuration not stated) | 8.9% |
| CCOC(=O)c1ccc(Nc2cc3ccccc3c(=O)[nH]2)cc1 | 3.1% |
| Cc1nnc(NC(=O)C2CCCN(S(=O)(=O)c3ccccc3C(F)(F)F)C2)s1 (configuration not stated) | 6.0% |
| CCC(=O)N1CCc2cc(S(=O)(=O)CCC(=O)N3CCN(c4ccc(Cl)cc4)CC3)ccc21 | -7.8%&-22.5% |
| O=C(Nc1ccccc1N1CCCC1)c1cc(Cl)ccc1Cl | -9.6% |
| Cc1ccc2nc(-c3ccc(Cl)c(NC(=O)COc4ccc([N+](=O)[O-])cc4)c3)oc2c1 | 8.0% |
| Cc1ccc(CNC(=O)CCCn2c(=O)c3ccccc3n(CC(=O)Nc3ccc(C)c(C)c3)c2=O)cc1 | 9.0% |
| COCCNC(=O)C(c1ccccc1)N(Cc1cccs1)C(=O)Cn1nnc2ccccc21 (configuration not stated) | 10.4% |
| CCCCn1c(SCC(=O)NC2CCCC2)nc2ccccc2c1=O | -9.1% |
| CC(C)C(=O)Nc1cccc(NC(=S)NC(=O)c2ccc3c(c2)OCO3)c1 | 2.9% |
| O=C(CCCc1nc(-c2ccccc2Cl)no1)N1CCOCC1 | -11.5% |
| Cc1ccc(C(=O)NC(=S)NCCN2CCOCC2)cc1 | -9.0% |
| CC[C@@H](C)[C@@H]1CN([C@@H](CN2CCC[C@H]2CN2C(N)=NC[C@H]2CC(C)C)C(C)C)C(=N)N1CCCC1CCCC1 | -6.6% |
| Cc1ccc(NC(=O)Cn2c(O)c(N=NC(N)=S)c3ccccc32)cc1 | 13.7% |
| Cc1onc(-c2ccccc2)c1-c1nc2cc(Cl)ccc2c(=O)o1 | -22.5% |
| CC(=O)N1CCC[C@@]2(CCN(c3ccccc3)C2)C1 | ? |
| OC1(c2cccc(C(F)(F)F)c2)CCNCC1 | -9.2% |
| CCOc1ncccc1C(=O)OC(C)C(=O)NC1CCCCC1 (configuration not stated) | -6.8% |
| COC(=O)c1ccc(C(=O)OC)c(NC(=O)CN(C)Cc2ccc(Cl)c(Cl)c2)c1 | -7.2% |
| COc1ccc(C(C(=O)NCCC(C)C)N(CCO)C(=O)c2snc(C(N)=O)c2N)cc1 (configuration not stated) | 2.3% |
| CN(C)S(=O)(=O)c1cccc(-c2cn3cc(Cl)ccc3n2)c1 | 15.6% |
| CCN(CC)CCNC(=O)CNC(=O)c1nn(-c2ccc(OC)cc2)c(=O)c2ccccc12 | -15.0% |
| COc1ccc(C(=O)O)cc1S(=O)(=O)NCCN(C)C | 10.9% |
| O=C1CCN(C(=S)NCc2ccccc2)CC1 | 10.9% |

Part of the list above, as labelled records:
> CC(=O)N1CCC[C@@]2(CCN(c3ccccc3)C2)C1
  VDR inh = ?

> OC1(c2cccc(C(F)(F)F)c2)CCNCC1
  VDR inh = -9.2%

> CCOc1ncccc1C(=O)OC(C)C(=O)NC1CCCCC1 (configuration not stated)
  VDR inh = -6.8%

More structures follow.
| structure | VDR inh |
| --- | --- |
| COc1ccccc1NC(=S)NNC(=O)c1c(Cl)c(C)nn1C | 8.0% |
| Cc1ccc(OCc2nc(-c3ccc(C(=O)NCc4ccc(OC(C)C)cc4)cc3)oc2C)cc1 | 9.7% |
| COc1ccc(-c2cc(-c3ccccc3)nc3ncnn23)cc1 | -15.1% |
| COc1cccc(C(=O)Nc2nnc(Cc3ccc(OC)c(OC)c3)s2)c1 | -7.1% |
| CCc1ccc(NC(=O)c2nn(-c3ccc(OC)cc3)c(=O)c3c2c2ccccc2n3C)cc1 | -6.4% |
| Fc1ccccc1C1c2[nH]c3ccccc3c2CCN1CCCn1cccn1 (configuration not stated) | 12.6% |
| COc1ccc(C(=O)c2cn(CC(=O)Nc3ccc4c(c3)OCO4)c3ccc(OC)cc3c2=O)cc1 | 13.7% |
| O=C(Cn1ncc(N2CCCC2)c(Cl)c1=O)c1ccc(Cl)cc1 | 14.0% |
| Clc1ccccc1-c1nnc2sc(CCc3ccccc3)nn12 | 50.1µM* |
| CCOC(=O)N1CCN(CC(c2ccccc2)c2ccccc2)CC1 | -21.3% |
| NC(=O)CC(NC(=O)Cc1cccc2ccccc12)c1ccc(NCCCN2CCCC2=O)c([N+](=O)[O-])c1 (configuration not stated) | -1.9% |
| COc1ccc(C(=O)OCN2C(=O)c3ccccc3C2=O)cc1 | 1.9% |
| COc1cc2cc(c1Cl)N(C)C(=O)CC(OC(=O)C(C)N(C)C(C)=O)C1(C)OC1C(C)C1CC(O)(NC(=O)O1)C(OC)C=CC=C(C)C2 (configuration not stated) | -14.8% |
| Cc1ccc(S(=O)(=O)NCC(=O)NCC(=O)N2CCN(c3ncccn3)CC2)cc1C | -10.6% |
| O=C(COC(=O)c1nc(Cl)ccc1Cl)NCc1ccccc1 | -14.1% |
| O=C(Oc1ccc(OC(=O)c2ccco2)c(S(=O)(=O)c2ccc(Cl)cc2)c1)c1ccco1 | -1.4% |
| Cc1ccc2c(c1)N(CC(=O)NCc1ccccc1Br)C(=O)c1cccnc1O2 | 3.3% |
| Cc1ccc(NC(=S)Nc2cccc(-c3n[nH]c(=S)o3)c2)cc1 | -9.6% |
| O=C(O)c1ccc(NC(=O)c2cccc(NC(=O)c3cccs3)c2)cc1 | 6.7% |
| CN(Cc1ccccc1)C(=O)c1[nH]cnc1C(=O)NCc1ccccc1 | -4.7% |
| COc1ccc(-c2nc(C)c(CCNC(=O)C(=O)Nc3ccccc3OC)s2)cc1 | -15.1% |
| CCOC(=O)c1c(N2C(=O)CC(Sc3ccccc3C(=O)O)C2=O)sc2c1CCCC2 (configuration not stated) | -6.6% |
| Cc1cccc(C)c1Nc1oc(-c2ccccc2)nc1-c1ccccc1 | -8.5% |
| Cc1cc(NC(=O)c2ccc3nc(C)sc3c2)no1 | 20.4% |
| COc1ccc(CN(CCN(C)C)Cc2ccccc2)c(OC)c1 | -16.2% |

Going on with the list.
| structure | VDR inh |
| --- | --- |
| COc1ccccc1C(=O)N/C(=C\c1ccc(Br)cc1)C(=O)NCCC(=O)O | 0.1% |
| O=C(COc1ccc(S(=O)(=O)Nc2ccccc2)cc1)NCc1cccnc1 | 3.7% |
| Cc1ccc(CCN2CC(C(=O)NCCN3CCOCC3)CC2=O)cc1 (configuration not stated) | -6.1% |
| CC(=O)NS(=O)(=O)c1ccc(NC(=S)NC(=O)C(C)C)cc1 | 16.5% |
| CCCn1cc(S(=O)(=O)c2ccccc2)c(=O)c2cc(F)c(N3CCCC(C)C3)cc21 (configuration not stated) | 15.8% |
| Cc1sc2ncn(CC(=O)N3CCN(c4ccc(F)cc4)CC3)c(=O)c2c1S(=O)(=O)N1CCOCC1 | 10.7% |
| Cc1ccccc1C(=O)NCc1ccncc1 | -18.9% |
| COc1ccccc1N(CC(=O)NC(C)C)S(=O)(=O)c1cccs1 | -9.1% |
| CC(Sc1nc(N2CCCCC2)c2c(c1C#N)CCCC2)C(=O)O (configuration not stated) | -12.5% |
| COc1cc(-c2cc(OC)c3c(C)oc(C)c3c(=O)c2)ccc1OC(=O)c1ccc(C)cc1 | 2.8% |
| CN(CCOC(=O)C1c2ccccc2Oc2ccccc21)C(C)(C)C | 0.0% |
| COc1ccc(NC(=O)CN2CCCC2)cc1 | 0.5% |
| O=C(Nc1ccc2c(c1)OCO2)c1cc(-c2ccc(O)cc2)on1 | -15.0% |
| CC1(C)CC(=O)C2=C(C1)N(c1ccc(F)cc1)C(=O)CC2c1ccsc1 (configuration not stated) | -4.3% |
| CCCCNc1c(C(=O)OCC)c(C)nc2c1cnn2CC | -1.5%&-5.0%&-8.2%&-23.4% |
| CC(NC(=O)CN1C(=O)NC(C)(c2cccc3ccccc23)C1=O)c1ccccc1 (configuration not stated) | 7.7% |
| CC(C)=CCCC1=CCC2C(=O)NNC(=O)C2C1 (configuration not stated) | 6.4% |
| COc1ccc2[nH]cc(C(=O)CN3CCCC(C)(C)C3)c2c1 | 9.4% |
| CCC1CCCCN1CCCNC(=O)c1cc2c(=O)[nH]c3ccccc3c2n1C (configuration not stated) | 3.4% |
| O=C(Nc1ccc2c(c1)CCC2)c1cccs1 | 12.3% |
| Cc1ccccc1-n1c(O)c(C=NC2CCS(=O)(=O)C2)c2ccccc2c1=O (configuration not stated) | -14.9% |
| CC1=C(C(=O)NC2CCCc3c2cnn3-c2cc(F)cc(F)c2)OCCO1 (configuration not stated) | -5.4% |
| CC1CCCC(C(=O)O)N1C(=O)CCS (configuration not stated) | 10.9% |
| O=C(c1ccc2c(c1)[nH]c(=S)n1c3ccccc3nc21)N1CCN(c2cccc(Cl)c2)CC1 | -5.8% |

From PubChem
